Source: PubChem (ICCB-Longwood Screening Facility, Harvard Medical School)
AID504770: growth inhibitors of E. coli YBA685 in a screen for V. cholerae RctB (chromosome II replication) inhibitors; E. coli YBA685 rctB-dependent plasmid, OD600 growth, 3 h; stronger effect = lower value; z-score (concentration not given with the values); 130,000 tested, 0.27% active;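 active means z-score under -2 on both plates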;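 further: wells of about 30 µL received 100 nL stock; score is relative to mean and SD of the test wells; the first replicate is given; strong numbers were not always called active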
CapD inh: inhibitors of Bacillus anthracis CapD enzyme. AID 492967. purified CapD enzyme, fluorescence intensity read-out; stronger effect = lower value; some hits fall short of the stated cut. z-score (no concentration beside the values). 140,000 tested, 0.23% active;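 active means z-score under -4 in either of two replicates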;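 further: stock transfer was 100 nL into about 40 µL; score is relative to mean and spread of the plate; one replicate is shown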
Numbers without * were called inactive; x = no result given. A portion of the library; rates above refer to the full screens.

Fields – AID504770, CapD inh
FC(F)(F)c1cc(-c2ccccc2)nc2ncnn12
    0.15, 87
O=C1C(c2sc3ccccc3c2O)=Nc2ccccc21
    x, -0.84
COc1ccc(S(=O)(=O)n2c(SCc3ccc(Cl)cc3)nc3ccccc32)cc1
    x, -0.42
COC(=O)CN1C(=S)N(c2ccccc2)C(=O)C1CC(=O)Nc1ccc(F)cc1 (stereo not drawn)
    -0.25, -0.5
O=C(c1cc(-c2ccc(Cl)cc2)cs1)N1CCCCC1
    x, -0.33
O=C(/C=C/c1ccc(Br)o1)Nc1ccc(F)cc1F
    -0.55, -1.6
CCN(Cc1cn2cccnc2n1)C1CCCCC1
    0.25, x
O=S(=O)(c1ccccc1)c1cccc(S(=O)(=O)N2CCCC2)c1
    -0.85, x
CC(Oc1ccc(Br)cc1Cl)C(=O)NC(N)=O (stereo not drawn)
    0.35, x
CC(=O)N1c2ccc(S(=O)(=O)NC(C(=O)Nc3nccs3)C(C)C)cc2CC1C (stereo not drawn)
    -0.55, -0.06

Exported with each value named: entries from further up
O=S(=O)(c1ccccc1)c1cccc(S(=O)(=O)N2CCCC2)c1
  AID504770: -0.85 | CapD inh: x
CC(=O)N1c2ccc(S(=O)(=O)NC(C(=O)Nc3nccs3)C(C)C)cc2CC1C (stereo not drawn)
  AID504770: -0.55 | CapD inh: -0.06

(continued)
Fields – AID504770, CapD inh
CCOC(=O)C1=C(Cn2ccnc2)NC(=O)NC1c1ccc(OC(C)C)cc1 (stereo not drawn)
    -0.4, 0.12
COc1cc(C=C2C(=O)NC(=S)NC2=O)cc(Cl)c1OCCOc1ccc(C)cc1
    x, -0.66
CCC(=O)c1cn(CC(=O)N(CC)CC)c2ccccc12
    0.7, 0.33
CCN1CCC(NC(C)c2ccc(OC)cc2)CC1 (stereo not drawn)
    -0.8, x
O=C(Nc1ccc(F)cc1)N1CCN(Cc2ccccc2)CC1
    -0.15, 0.065
O=C1NC(=O)c2ccc3c4c(ccc1c24)C(=O)N(c1ccccc1)C3=O
    -0.1, 0.045
O=C(NCCCn1ccnc1)c1cc(-c2cccs2)on1
    -0.75, -0.045
Nc1c(C(=O)c2ccccc2)sc2nc(-c3ccccc3)cc(C(F)(F)F)c12
    x, 0.01
CCc1ccc2nc(NC(=O)c3c(C)oc(-n4cccc4)c3C#N)sc2c1
    -0.4, x
Cc1cc(C(=O)COC(=O)c2ccc(S(=O)(=O)N(C)C)cc2)c(C)n1-c1ccc2c(c1)OCO2
    0.05, x

New compounds follow:
Fields – AID504770, CapD inh
COc1cc2nc(CC(C)C)n(N)c(=O)c2cc1OC
    1.2, x
COC(=O)Cn1nc2c3c(cccc31)C(=O)c1ccccc1-2
    2.3, -1.1
C1CCC(Nc2nnnn2C2CCCCC2)CC1
    0.5, x
COC(=O)C1=C(Nc2ccccc2NS(=O)(=O)c2ccc(Cl)cc2)CSC1
    1.4, 0.14
CC(=O)N1CCC2(CC1)C(C#N)=C(N)OC1=C2C(=O)CCC1
    -0.6, -0.13
O=C(O)CSc1c2c(nc3cc(C(=O)NCCN4CCOCC4)ccc13)CCC2
    0.9, -0.21
COC(=O)c1sc(N2CCCCC2)c(C#N)c1N
    x, -0.2
c1ccc(Nc2cccc3nccnc23)cc1
    -0.5, x
N#CC1CC(=O)OC12CCCCC2 (stereo not drawn)
    x, -0.17
COc1ccc(N2CCN(CCCNC(=O)c3cccc(Nc4nc5ccccc5n5nnnc45)c3)CC2)cc1
    0.05, 1

Going on with the list:
Fields – AID504770, CapD inh
Cc1cc(NC(=O)C(Cc2ccccc2)NS(=O)(=O)c2cccc3cccnc23)no1 (stereo not drawn)
    -0.15, 0.15
Cc1ccc(C(CC(=O)N2CCCCC2)N2Cc3ccccc3C2=O)cc1 (stereo not drawn)
    -0.5, -0.13
Cc1ccc(NC(=O)c2cc(=O)[nH]c(=O)[nH]2)cc1
    -0.25, -0.3
NC(=O)Cn1c(=O)n(-c2ccccc2)c(=O)c2ccc(C(=O)NCc3ccco3)cc21
    1.6, -0.22
CC(C)(CC(=O)O)CC(=O)N1CCN(C(c2ccccc2)c2ccc(Cl)cc2)CC1 (stereo not drawn)
    x, -0.29
CC1CCN(C(=O)CCNC(=O)c2ccccc2)CC1
    -0.7, x
O=C(NCCC1=CCCCC1)c1ccc2c(c1)sc1nc(-c3ccccc3)cn12
    0.9, -0.21
Cc1cccc(N2C(=O)C(=O)/C(=C(\O)c3ccccc3)C2c2ccc(N(C)C)cc2)c1 (stereo not drawn)
    x, 35
N#CCSc1nc2cc(C(=O)NCCC3=CCCCC3)ccc2c(=O)n1C1CCCCC1
    x, -0.17
CC(=O)Nc1ncc(S(C)(=O)=O)c(-c2ccc(C(F)(F)F)cc2)n1
    x, -0.24

(further entries)
Fields – AID504770, CapD inh
CC1=CC2=NC(=O)/C(=C\c3cccn3CCCOc3cc(C)cc(C)c3)C(=N)N2O1
    -0.05, -1.1
CC(=O)c1ccc(NC(=O)CSC2=C(C#N)C(c3cccs3)C3=C(CCCC3=O)N2)cc1 (stereo not drawn)
    x, 2.6
O=C(CCNC(=O)c1ccc(Br)o1)NC1CCCC1
    -0.55, -0.35
O=C1CSC(c2cccc(C(F)(F)F)c2)N1c1ccc(F)c(Cl)c1 (stereo not drawn)
    2, 0.035
CC(C)(C)c1cc(C(C)(C)C)n(-c2ccc(C(=O)NNC(=O)c3ccc4nsnc4c3)cc2)n1
    x, -1.4
CCCn1cc(SCC(N)=O)c2ccccc21
    -0.6, -0.9
COc1ccccc1NC(=O)Cc1ccc(Br)cc1
    -0.2, 0.15
O=S(=O)(c1ccc(Br)cc1)c1cc(C(F)(F)F)cc(C(F)(F)F)c1
    x, -0.23
COc1cccc(-c2nc(S(=O)(=O)c3ccc(C)cc3)c(N(C)C)o2)c1
    0.7, -0.99
Cn1nccc1NS(=O)(=O)c1ccc(NS(=O)(=O)c2ccc(Cl)cc2)cc1
    -0.05, 0.2

Part of the list above, comma-delimited.
SMILES,AID504770,CapD inh
COc1ccccc1NC(=O)Cc1ccc(Br)cc1,-0.2,0.15
O=S(=O)(c1ccc(Br)cc1)c1cc(C(F)(F)F)cc(C(F)(F)F)c1,x,-0.23

Other records
Fields – AID504770, CapD inh
CCn1nnc2c(N3CCN(c4ccc(OC)cc4)CC3)ncnc21
    -0.9, x
O=C(Cn1cnc2ccc(Br)cc2c1=O)OCc1ccccc1
    -0.95, 0.18
CC(Oc1ccc(OC(C)C(=O)/C=C/N(C)C)cc1)C(=O)/C=C/N(C)C (stereo not drawn)
    x, -1.2
Cc1ccc(OCc2ccc(Cl)cc2)c(C(C)(C)C)c1
    -0.3, -0.23
Cc1cc(NC(=O)COc2cc(C)c(Cl)c(C)c2)no1
    -0.1, 0.18
Cc1cc2ncn(/N=C/c3ccc4c(c3)OCO4)c2cc1C
    1.1, 0.41
CCOC(=O)c1ccccc1NC(=O)CN1C(=O)c2cccc3cccc1c23
    1.7, 0.29
O=C(CCSCc1cnn(-c2ccccc2)c1-n1cccc1)N1CCCCCC1
    -1, -0.82
O=C(O)c1cnn2c(C(F)(F)F)cc(-c3ccc(F)cc3)nc12
    -0.4, -1.2
CC(=O)Oc1ccc(-c2cccc(C(=O)O)c2)cc1
    -1.2, x

(continued)
Fields – AID504770, CapD inh
O=C(COc1ccc(S(=O)(=O)N2CCOCC2)cc1)NCCC1=CCCCC1
    -0.1, -0.28
CN(Cc1cccs1)C(=O)Cn1cnc2ccccc2c1=O
    1.8, x
COC(=O)Cc1cc(=O)[nH]c(/N=C(\N)Nc2ccccc2)n1
    1.9, 5.5
O=C(CC(c1ccccc1)c1ccccc1)NCCn1ccc2ccccc21
    -0.95, -0.84
CCOC(=O)CSc1nc(N2CCOCC2)c2c(c1C#N)CCCC2
    x, 0.29
O=C(CS(=O)(=O)c1ccccc1)Nc1ccc(N2CCOCC2)cc1
    x, -0.14
O=C1NC(c2ccc(Cl)cc2)=CC(c2ccc(Cl)cc2)N1 (stereo not drawn)
    0.75, -0.39
Cc1cc(C)nc(NS(=O)(=O)c2ccc(Nc3nc(-c4ccncc4)cs3)cc2)n1
    x, 0.065
Oc1c(C(Nc2ccccn2)c2cccnc2)ccc2cccnc12 (stereo not drawn)
    0.35, x
Cc1cc2c(n1-c1ccc(C(=O)NCCN(C)C)cc1)CCCC2
    0.65, -0.62

Carrying on:
Fields – AID504770, CapD inh
CC1(C)CC(=O)c2cc(-c3ccc(Br)cc3)n(CC(=O)O)c2C1
    1.5, 0.66
CCCCCCCCCCNS(=O)(=O)c1cc2c(c([N+](=O)[O-])c1)-c1c(cc(S(=O)(=O)NCCCCCCCCCC)cc1[N+](=O)[O-])C2=NO
    x, -0.045
COc1ccc(OC)c(C(=O)CSC#N)c1
    1.9, 2.7
CCN(CC)c1ccc(C(=O)OCC(=O)NC2CCCCC2)cc1
    -0.25, 0.72
CCC(C(=O)NCCc1cc2ccc(OC)cc2[nH]c1=O)c1ccccc1 (stereo not drawn)
    -0.75, 6.7
Cc1nc(N(C)c2ccc(C(C)C)cc2)c2c(C)c(C(=O)N3CCOCC3)sc2n1
    x, -0.47
Cc1ccc(N/C(SCc2cccc([N+](=O)[O-])c2)=C(/C#N)C(=O)NCc2ccco2)cc1C
    x, -0.32
Nc1nc(N(Cc2ccccc2)Cc2ccccc2)nc(C(F)(F)F)n1
    -0.05, 0.15
CCOc1ccc(NC(=O)CSc2nnc(NC(=O)c3ccccc3C(F)(F)F)s2)cc1
    x, 0.23
O=S(=O)(c1ccccc1)n1nc(-c2cccnc2)nc1NCc1cccs1
    -1, -0.88

Following part.
Fields – AID504770, CapD inh
O=C(O)CCC(=O)Nc1ccc(COc2ccccc2)cc1
    1.2, x
COc1cccc(-c2nc3sc4c(c3c(=O)n2CC(=O)Nc2ccc(C)c(Cl)c2)CCCC4)c1
    x, -0.47
CS/C(NCc1cccnc1)=C(/C#N)S(=O)(=O)c1ccc(Cl)cc1
    2.1, -0.8
COC(=O)c1cc(S(=O)(=O)NCC(C)c2ccccc2)cn1C (stereo not drawn)
    -0.95, -0.83
CN(C)C(=O)Oc1cccc(-c2c(C#N)c(N)n3c(nc4ccccc43)c2C#N)c1
    x, 1.4
O=C(OCCN1CCN(Cc2csc([N+](=O)[O-])c2)CC1)N1CCN(c2cccc3[nH]ccc23)CC1
    x, -0.095
C=CCN1C(=O)/C(=C2\SC(N3CC(C)OC(C)C3)=NC2=O)c2cc(Br)ccc21 (stereo not drawn)
    x, -0.32
CCn1c(SCC(=O)c2ccccc2)nc2sc3c(c2c1=O)CC(C)(C)OC3
    x, 3.1
CCCn1c(=S)[nH]c2cc(C(=O)N3CCN(C)CC3)ccc2c1=O
    -0.15, -0.27
CC(C)Cn1c(C23CC4CC(CC(C4)C2)C3)n[nH]c1=S
    0.3, 0.33

(next part)
Fields – AID504770, CapD inh
COc1ccc(Cl)cc1N(CC(=O)Nc1ccc2c(c1)OCO2)S(=O)(=O)c1ccc(C)c([N+](=O)[O-])c1
    x, -0.055
Nc1ccc(N2CCOCC2)c2nonc12
    0, x
CN(CC(=O)N1CCc2ccccc21)S(=O)(=O)c1ccc2[nH]c3c(c2c1)CCCC3
    -0.6, 13
CCSc1nnc(NC(=O)c2ccc3c(c2)NC(=O)CS3)s1
    1.1, x
CN1C(=O)C(=Cc2cc(Br)ccc2OCCOc2ccccc2)C(=O)N(C)C1=O
    x, -0.27
O=C(NCCc1c[nH]c2ccc(Cl)cc12)C1CCCO1 (stereo not drawn)
    0, 0.79
CNC(=O)CSCc1ccc(Br)cc1
    0.4, 0.56
CCn1c(CCc2nnc(SCC(=O)c3ccccc3)n2CC)nnc1SCC(=O)c1ccccc1
    0.15, x
O=C1Nc2ccccc2C(c2ccccc2)=NC1O (stereo not drawn)
    x, -0.73
COc1ccc(C2C(C(=O)O)c3ccccc3C(=O)N2Cc2ccc(F)cc2)cc1 (stereo not drawn)
    x, -0.055

Next records:
Fields – AID504770, CapD inh
Cc1[nH]cc(Br)c(=O)c1OCC(=O)O
    -0.6, 0.47
O=S(=O)(c1ccccc1F)N1CCN(CCc2ccccc2)CC1
    x, 0.45
O=C(Nc1sc2c(c1C(=O)N1CCCCC1)CCCC2)c1ccco1
    1.7, x
C=CCSc1nc2sc(C)c(C)c2c(=O)[nH]1
    -1.2, 0.51
C=CCNC(=O)C1CCN(S(=O)(=O)c2cccc(C(F)(F)F)c2)CC1
    -0.25, x
O=C(O)CN=C1NC2(CCCC2)Cc2ccccc21
    1.3, x
CC(C)Sc1n[nH]c(=S)n1C
    -0.5, -0.79
COc1ccccc1/C=C/C=C1\N=C(c2cc(Br)ccc2OC)OC1=O
    x, -1.3
CN1C(=O)C2ON(c3ccccc3)C(c3ccccc3)C2C1=O (stereo not drawn)
    -1.7, -0.17
Cc1ccccc1C(=O)OC(C)CN1CCCC1 (stereo not drawn)
    -1.1, -0.41

More entries follow:
Fields – AID504770, CapD inh
CN(C)c1ccc(-c2nc3ccccc3s2)cc1
    1.3, x
Cc1ccc(N2C(=O)C(CC(=O)Nc3ccc(Cl)cc3)N(CCN3CCN(C)CC3)C2=S)cc1 (stereo not drawn)
    0.4, 0.45
Nc1nc(SCC(=O)N2N=C(c3ccco3)CC2c2cccs2)n[nH]1 (stereo not drawn)
    0, x
COc1ccc(OCC(=O)N2c3ccccc3C(C)(c3ccccc3)CC2(C)C)cc1 (stereo not drawn)
    -0.7, -0.19
COC(=O)c1ccccc1NC(=O)Cn1c(C)ccc1C
    -0.35, 0.3
O=C(CSc1ccccn1)Nc1ccc(F)c(Cl)c1
    -1.6, -1.3
O=C(Cc1ccc(S(=O)(=O)N2CCOCC2)s1)Nc1ccc(-c2cn3ccsc3n2)cc1
    -0.15, x
COC(=O)/C=C1\SC(=Nc2ccccc2)NC1=O
    0.05, 0.1
Cc1ccc2nc(SCc3nc4ccccc4n3C)[nH]c2c1
    2.2, 0.24
